# Bfl-1 A1 inh – caspase 3/7 activation in MEF A1-2A-BIM cells, primary screen, A1 inhibitor project, cell-based, luminescence, HTS | Caspase-Glo 3/7 luminescence, 3 h; percent of clofoctol response, vehicle zero | caspase activation, % (test concentration not listed) | 330,000 compounds, 0.066% hits | AID 2462, 2010;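 active = over half of replicate activation scores above 10%, or exactly half above 10 with the replicate mean above 10; inconclusive = replicate mean below 10 yet half the replicates above 10; inactive = over half of replicates below 10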;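 also: wells of about 30 µL received 50 nL stock; many hits fall short of the cut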
# Beta2AR agonist – beta2AR agonists driving receptor internalization, primary screen, cell-based, FAP fluorogen, flow cytometry | Am2.2-beta2AR cells; reference of the scale not given here | response, % (concentration not given with the values) | AID 504454, 2011 | Beta-2 adrenergic receptor (Homo sapiens), P07550 | 340,000 compounds, 0.43% hits;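 active = response above a set limit, near 3 SD of response in nonfluorescent compounds, cut at about 42% in these data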;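 also: stock transfer was 100 nL into about 11 µL; a reference agonist was the positive control; negative values mostly stem from fluorescent compounds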
# Target sequence (P07550 whole entry, looked up): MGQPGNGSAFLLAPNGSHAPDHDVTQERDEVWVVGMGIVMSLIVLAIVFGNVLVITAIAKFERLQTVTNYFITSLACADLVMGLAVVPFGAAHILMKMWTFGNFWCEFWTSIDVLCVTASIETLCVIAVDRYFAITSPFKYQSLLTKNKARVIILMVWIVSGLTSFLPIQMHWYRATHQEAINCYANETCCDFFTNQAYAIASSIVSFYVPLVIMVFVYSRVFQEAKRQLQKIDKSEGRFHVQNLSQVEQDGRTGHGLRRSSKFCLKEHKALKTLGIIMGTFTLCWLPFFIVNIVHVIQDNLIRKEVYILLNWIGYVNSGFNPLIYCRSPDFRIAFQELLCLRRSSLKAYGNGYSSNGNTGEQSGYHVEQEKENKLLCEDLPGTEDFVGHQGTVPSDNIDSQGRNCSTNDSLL
# ALR inh – inhibitors of human ALR sulfhydryl oxidase, primary screen, biochemical, H2O2 detection, HRP-luminol luminescence, single point; purified ALR, DTT oxidation; inhibition, % (no concentration beside the values); 290,000 compounds, 3.8% hits; AID 485317, 2010;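 active = mean and each replicate at 75% or more; inconclusive = only one of the two met; inactive = neither met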;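 also: stock transfer was 7.5 nL into about 7.5 µL; 0% = neutral wells and 100% = wells with inactivated enzyme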
# Target sequence (P55789 whole entry, looked up): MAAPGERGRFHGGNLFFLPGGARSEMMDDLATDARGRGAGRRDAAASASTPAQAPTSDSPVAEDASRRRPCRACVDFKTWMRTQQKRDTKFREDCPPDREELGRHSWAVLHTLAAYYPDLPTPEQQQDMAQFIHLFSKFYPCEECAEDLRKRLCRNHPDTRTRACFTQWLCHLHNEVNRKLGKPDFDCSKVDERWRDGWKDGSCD
# Ecoli rRNA inh – reduced GFP signal of wild-type E. coli, primary screen, bacterial rRNA inhibitor project, GFP/RFP fluorescence, OD600, single point; 350,000 compounds, 1.6% hits; GFP signal change (wild-type ribosome), % (test concentration not listed); E. coli WT GFP vs humanized-ribosome RFP mutants, 24 h; active compounds read low; DMSO median 0, no signal -100; AID 720706, 2013;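 active = significant combined selectivity score with lowered wild-type GFP, culture density cut under 30%, mutant RFP and density less affected; inactive = any of these conditions unmet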; also: one replicate is shown; some compounds called inactive have numbers as strong as hits
# Beta cell apopt – inhibitors of cytokine-induced beta cell apoptosis, primary screen, luminescence. protection from apoptosis, % (concentration not given with the values). 300,000 compounds, 0.8% hits. INS-1E cytokine-induced death, ATP luminescence, 48 h; percent of positive-control rescue, neutral wells zero. AID 435005, 2010;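 active = all replicates at 75% or more, or half of them and the mean; inconclusive = half reach 75% but not the mean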;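 also: 0% = cytokine-treated negative control wells and 100% = positive control rescue; higher means more ATP so stronger rescue from cytokine killing; wells of about 40 µL received 100 nL stock; the first replicate is given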
# LANA-H2B inh – blockers of LANA interaction with H2A/H2B – biochemical, FP readout, HTS, primary screen. AID 2629, 2010. cell-free LANA-H2A/H2B peptide, fluorescence polarization. inhibition, % (test concentration not listed). 320,000 compounds, 0.6% hits; in the data active = inhibition mostly above about 10%, no sharp cut-off; inactive = mostly below about 6.7%;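 also: stock transfer was 7.5 nL into about 10 µL; 0% = median of vehicle wells and 100% = median of positive control wells; one replicate is shown; the record names a cut of 25% in any replicate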
# Calb FLC – C. albicans growth inhibition with fluconazole, primary screen, CaCi-2 strain, Alamar Blue fluorescence; 300,000 compounds, 0.57% hits; growth inhibition, % (test concentration not listed); AID 1979, 2009; C. albicans CaCi-2 (fluconazole-resistant clinical isolate) + fluconazole, 48 h;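 active = most replicates above 75%; inconclusive = exactly half above 75%; inactive = most below 75%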;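 also: all wells also contain fluconazole at 8 µg/ml as a sub-toxic cotreatment; 0% = median of DMSO wells and 100% = median of geldanamycin control wells; wells of about 8 µL received 7.5 nL stock; the first replicate is given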
# T cruzi inh – inhibitors of intracellular T. cruzi growth, primary screen, luminescence, NIH3T3 host cells; 300,000 compounds, 1.4% hits; inhibition, % (no concentration beside the values); AID 1885, 2009; T. cruzi beta-gal in NIH3T3, 90 h;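 active = mean inhibition across valid replicates above about 55%, limit read from the data; inconclusive = mean below that limit but half or more replicates reach it; inactive = mean below it, under half of replicates reach it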;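 also: signal also drops with host cell toxicity which is not excluded here; 0% = plate median of DMSO wells and 100% = zero luminescence signal; higher percent means less beta-gal luminescence so fewer parasites; stock transfer was 50 nL into about 50 µL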
# Ecoli rRNA inh OD600 – further read-out of Ecoli rRNA inh, marked with its call; OD600 change, %; measured here: OD600 growth;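 optical density of the mix in the first replicate; 0 = DMSO median and -100 = no signal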
# Ecoli rRNA inh RFP – also measured in Ecoli rRNA inh; calls as there; RFP signal change, %; measured here: RFP humanized mutant strains;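 first replicate; 0 = DMSO median and -100 = no signal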
# Active calls of the source: *; ? = inconclusive; nt = no result given; & = joins results of further samples.
SMILES,Bfl-1 A1 inh,Beta2AR agonist,ALR inh,Ecoli rRNA inh,Ecoli rRNA inh OD600,Ecoli rRNA inh RFP,Beta cell apopt,LANA-H2B inh,Calb FLC,T cruzi inh
COc1ccc(C(=O)Nc2ccccc2C(=O)N2CCCCC2C)cc1 (stereo unspecified),-2.1,-1,-6,5,9,0.3,5,5.2,-38,10
COCCC(=O)N1CCCC(CNS(=O)(=O)c2ccc(OC)cc2)C1 (stereo unspecified),0.3,4,-32,-14,-15,-1.4,-2,1.4,17,-7
COc1cc(OC)c(OC)cc1CN1CCc2ccccc2C1,-0.9,-5,5,13,7,-2.7,-8,1.5,-12,6
Fc1ccccc1OCCCCCN1CCCC1,-1.1,-7,nt,nt,nt,nt,1,2.2,-19,23
CC1=[N+](C)N(c2ccccc2)C(=O)C1N=Cc1ccc(Cl)cc1 (stereo unspecified),0.6,0,1,15,17,-1.5,-1,-1.3,-5,1
COc1ccc2oc(=O)c(C(=O)NC3CCCCCC3)cc2c1,-0.7,2,-11,-1,0,-0.2,nt,-0.8,1,-15
O=C(O)c1cc(N2C(=O)CCC2=O)ccc1Cl,-0.6,2,-2,25,17,0.3,-2,-6.1,-31,-14
COCCNS(=O)(=O)c1cc(C(=O)O)ccc1OC,0.7,-2,-2,14,13,1.0,-1,5.9,16,-11
CC(Oc1ccc(Cl)cc1Cl)C(=O)Nn1cnnc1 (stereo unspecified),-0.2,2,nt,nt,nt,nt,nt,2.0,-15,10
COc1cc(CNC(=O)CCCCCCC(C)C)ccc1O,-0.3,5,44,nt,nt,nt,nt,-5.8,nt,nt
O=C(CCSc1nnc2scc(-c3ccccc3)n12)NCc1ccc2c(c1)OCO2,-0.6,14,-5,nt,nt,nt,-2,1.1,0,9
Cc1ccc(OCC(=O)NNC(=O)C2CC(=O)N(c3ccc4c(c3)OCCO4)C2)cc1 (stereo unspecified),-0.3,-4,-1,0,4,-0.8,-5,-1.6,5,0
CCn1c(=O)n(CC)c2cc(N3CCCC3)c(NC(=O)c3ccccc3Br)cc21,0.5,12,nt,-10,-15,-1.1,-1,-1.5,21,5
CCCCOc1ccc(C(=O)NCC(=O)N(C)Cc2nc3ccccc3c(=O)[nH]2)cc1,-0.8,-4,-1,0,6,-1.5,-10,2.5,nt,nt
C=CCOc1c(CNn2cn[nH]c2=S)cccc1OC,0.4,-1,-27,-1,1,0.7,-3,2.1,11,-13
COC(=O)[C@H](CC(C)C)NC(=O)N1CCCCC1C (stereo partly specified),0.3,8,nt,11,1,0.4,-6,-4.7,-13,nt
Cc1cc(C(=O)NNC(=O)c2cccs2)nn1C(C)(C)C,0.5,2,5,0,5,0.0,-1,0.5,-1,-8
Cc1nnc(Cn2cnc3c2c(=O)n(C)c(=O)n3C)o1,-0.3,0,5,6,1,-0.6,-6,2.6,2,-4
CCN(CC)C(=O)[C@H]1CC(CC(=O)NCCc2ccccn2)C(=O)N2CCc3c([nH]c4ccccc34)[C@]12C (stereo partly specified),0.3,-10,3,24,2,6.0,-1,-15,nt,nt
NC(=O)C1(N2CCCCC2)CCN(C(=O)CSc2nc3ccccc3o2)CC1,-0.1,-7,-25,nt,nt,nt,-9,-0.7,-10,5
COc1cccc(NC(=O)Nc2ccccc2Br)c1,-3.2,-1,2,nt,nt,nt,7,5.5,-6,20
Cc1nn(C(C)C(=O)NCCCN(Cc2ccccc2)C(C)C)c(=O)c2c1sc1ccccc12 (stereo unspecified),0.7,3,nt,8,-4,4.3,0,0.4,-8,18
CCOc1ccc(OCCCC(=O)N(C)CC(=O)Nc2ccc(N3CCOCC3)cc2)cc1,-0.4,-3,5,0,1,-0.7,0,-1.1,-1,1
Cc1cc(C(=O)CCC(=O)NCC2COc3ccccc3O2)c(C)s1 (stereo unspecified),0.4,10,nt,-20,-24,-2.7,1,0.2,11,-1

# Entries of single compounds as entered above.
# O=C(O)c1cc(N2C(=O)CCC2=O)ccc1Cl is listed as Bfl-1 A1 inh = -0.6; Beta2AR agonist = 2; ALR inh = -2; Ecoli rRNA inh = 25; Ecoli rRNA inh OD600 = 17; Ecoli rRNA inh RFP = 0.3; Beta cell apopt = -2; LANA-H2B inh = -6.1; Calb FLC = -31; T cruzi inh = -14
# O=C(CCSc1nnc2scc(-c3ccccc3)n12)NCc1ccc2c(c1)OCO2 is listed as Bfl-1 A1 inh = -0.6; Beta2AR agonist = 14; ALR inh = -5; Ecoli rRNA inh = nt; Ecoli rRNA inh OD600 = nt; Ecoli rRNA inh RFP = nt; Beta cell apopt = -2; LANA-H2B inh = 1.1; Calb FLC = 0; T cruzi inh = 9

# Next section:
SMILES,Bfl-1 A1 inh,Beta2AR agonist,ALR inh,Ecoli rRNA inh,Ecoli rRNA inh OD600,Ecoli rRNA inh RFP,Beta cell apopt,LANA-H2B inh,Calb FLC,T cruzi inh
Cc1c(C(=O)OCC(=O)N(C)c2ccccc2)oc2ccccc12,-0.1,0,-3,-28*,-9.4*,8.3*,-1,3.5,12,2
O=C(Cn1ccc([N+](=O)[O-])n1)NCC1CCCO1 (stereo unspecified),-0.1,6,-26,-7,11,0.9,1,0.3,0,-8
CCn1c(=O)n(CC(=O)NCC2CCCO2)c(=O)c2c3c(sc21)CCCC3 (stereo unspecified),0.0,-4,-5,8,4,-0.8,3,6.5,-4,-3
Cc1ccc2[nH]cc(CCNC(=O)/C=C/c3ccco3)c2c1,0.2,-4,4,-8,-3,9.5,-4,12,-3,-6
NC(=O)COC(=O)c1cccc(S(=O)(=O)N2CCCc3ccccc32)c1,-0.4,9,0,-18,-35,-3.7,-3,-2.3,5,10
Fc1cc(Br)ccc1NC(=S)Nc1ccccc1,-0.6,-4,3,nt,nt,nt,nt,2.0,-9,-8
Cc1ccccc1OCC(O)Cn1c(=N)n(CCN2CCOCC2)c2ccccc21 (stereo unspecified),0.1&-0.7,3&2,-23&1,-2,3,1.2,-2&-3,3.4&0.3,-2&-10,-12&-10
Cc1ccc(NC(=O)Nc2ccc([N+](=O)[O-])cc2)nc1,-0.2,-5,-6,6,9,1.7,5,4.8,0,26
CCOC(=O)N1CCN(C(=O)CN(c2ccc(OCC)cc2)S(C)(=O)=O)CC1,-0.6,-6,-5,nt,nt,nt,0,-0.5,1,6
CC(=O)N(NC(=O)c1ccc(C)cc1)C1CC(=O)N(c2ccccc2Cl)C1=O (stereo unspecified),-0.1,-11,-2,nt,nt,nt,0,-13,?,-1
Nc1c(C(=O)Nc2ccc3c(c2)OCCO3)nnn1Cc1ccc(Br)cc1,-0.4,-4,-5,3,5,-0.3,0,0.8,12,5
CC1CCC/C(=N\NC(=O)COc2ccccc2Cl)C1 (stereo unspecified),0.1,3,13,12,0,1.5,4,2.3,-2,2
CC(C)Nc1nc(NC(C)C)nc(C(=O)OCCO)n1,0.1,3,nt,2,5,7.6,1,-3.8,-1,-2
CC(C)CCN1CCN(CC(c2ccccc2)c2ccccc2)CC1CCO (stereo unspecified),0.4,3,-4,-4,-27,6.8,4,-3.8,-8,6
Cc1nnc(NC(=O)CSc2nnc(C)c(=O)n2N)s1,-0.2,-10,-14,18,7,0.6,-3,2.2,3,-13
COc1cccc(-n2c(SCc3cc(=O)oc4cc(O)c(O)cc34)nc3ccccc3c2=O)c1,1.7,6,-24,-50,-73,-14,-6,6.0,106*,8
N#Cc1ccc(OCC(=O)OCC(=O)Nc2sccc2C(N)=O)cc1,0.8,-3,-3,5,7,-2.5,-7,-57,nt,nt
O=C(NC1CCCCC1)C1CCN(C(=O)c2ccc(-c3ccccc3)cc2)CC1,-0.5,-1,23,10,13,1.2,1,-3.8,-22,6
O=C(COc1ccccc1Cl)Nc1ccc(Cl)cn1,-3.7,0,-3,nt,nt,nt,1,0.2,-14,-10
COc1ccc(NC(=O)n2ncc3cc(Cl)ccc32)cc1OC,-1.1,1,nt,-6,-4,-1.9,-4,2.0,10,-4
CCOC(=O)C1CCCN(C(=O)CN2C(=O)c3ccccc3S2(=O)=O)C1 (stereo unspecified),1.0,4,nt,9,10,-1.2,1,-1.0,nt,nt
CC1Cc2ccccc2N1C(=O)CSc1nnc(N)s1 (stereo unspecified),0.6,-9,-4,10,3,7.0,-1,4.4,-15,-5
On1nnc2ccccc21,-0.5,7,3,12,9,-2.7,-2,0.2,-23,-16
CC(=O)Nc1ccc(NC(=O)C2CCCN2C(=O)Nc2ccc(F)cc2)cc1 (stereo unspecified),-0.2,-3,5,4,20,-1.5,-1,3.5,-3,4
O=C(NC1CCCC1)c1cccc(Cn2cc([N+](=O)[O-])cn2)c1,-0.6,-6,0,9,12,-6.5,2,-2.6,-3,-2
Cc1nc(C(C)NC(=O)CCc2nnc(-c3ccsc3)o2)cs1 (stereo unspecified),0.5,0,-6,6,1,-2.4,3,3.0,0,7
COc1ccccc1NS(=O)(=O)c1cc(NC(=O)C(C)(C)C)ccc1N1CCOCC1,0.4,11,-1,5,2,-0.5,6,1.2,4,-4
Oc1ccccc1-c1nc(NC2CCCC2)c2ccccc2n1,-1.9,4,0,11,15,-0.6,10,0.0,21,27
CCn1cc(C(=O)N[C@@H](CCSC)C(=O)NCCCN2CCOCC2)c(=O)c2cc3c(cc21)OCO3,-0.3,3,1,10,9,0.2,-5,0.9,nt,-2
CC1CCN(c2ncnc3nc[nH]c23)CC1,-1.2,1,nt,-2,1,-3.9,-3,-2.8,2,3

# Gathered by group, the compounds so far containing a Cl atom.
SMILES,Bfl-1 A1 inh,Beta2AR agonist,ALR inh,Ecoli rRNA inh,Ecoli rRNA inh OD600,Ecoli rRNA inh RFP,Beta cell apopt,LANA-H2B inh,Calb FLC,T cruzi inh
CC1=[N+](C)N(c2ccccc2)C(=O)C1N=Cc1ccc(Cl)cc1 (stereo unspecified),0.6,0,1,15,17,-1.5,-1,-1.3,-5,1
O=C(O)c1cc(N2C(=O)CCC2=O)ccc1Cl,-0.6,2,-2,25,17,0.3,-2,-6.1,-31,-14
CC(Oc1ccc(Cl)cc1Cl)C(=O)Nn1cnnc1 (stereo unspecified),-0.2,2,nt,nt,nt,nt,nt,2.0,-15,10
CC(=O)N(NC(=O)c1ccc(C)cc1)C1CC(=O)N(c2ccccc2Cl)C1=O (stereo unspecified),-0.1,-11,-2,nt,nt,nt,0,-13,?,-1
CC1CCC/C(=N\NC(=O)COc2ccccc2Cl)C1 (stereo unspecified),0.1,3,13,12,0,1.5,4,2.3,-2,2
O=C(COc1ccccc1Cl)Nc1ccc(Cl)cn1,-3.7,0,-3,nt,nt,nt,1,0.2,-14,-10
COc1ccc(NC(=O)n2ncc3cc(Cl)ccc32)cc1OC,-1.1,1,nt,-6,-4,-1.9,-4,2.0,10,-4

# Source: PubChem (several laboratories)

# An excerpt; the hit share may differ from the screen's.
